# KCNQ2 block – KCNQ2 potassium channel inhibitors, primary screen, cell-based, CHO-K1, FluxOR thallium flux, B-score (AID 2156); 20 min; hits give low values; only compounds with negative scores are shown here; some inactives read as strong as hits; B-score at 10 µM; hit rate 1.1% among 310,000;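 active means fluorescence ratio B-score at most minus 3 library SDs, with starting brightness B-score within 2 library SDs, cut at about -5.5 in these data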
# Target sequence (O88943 whole entry, looked up): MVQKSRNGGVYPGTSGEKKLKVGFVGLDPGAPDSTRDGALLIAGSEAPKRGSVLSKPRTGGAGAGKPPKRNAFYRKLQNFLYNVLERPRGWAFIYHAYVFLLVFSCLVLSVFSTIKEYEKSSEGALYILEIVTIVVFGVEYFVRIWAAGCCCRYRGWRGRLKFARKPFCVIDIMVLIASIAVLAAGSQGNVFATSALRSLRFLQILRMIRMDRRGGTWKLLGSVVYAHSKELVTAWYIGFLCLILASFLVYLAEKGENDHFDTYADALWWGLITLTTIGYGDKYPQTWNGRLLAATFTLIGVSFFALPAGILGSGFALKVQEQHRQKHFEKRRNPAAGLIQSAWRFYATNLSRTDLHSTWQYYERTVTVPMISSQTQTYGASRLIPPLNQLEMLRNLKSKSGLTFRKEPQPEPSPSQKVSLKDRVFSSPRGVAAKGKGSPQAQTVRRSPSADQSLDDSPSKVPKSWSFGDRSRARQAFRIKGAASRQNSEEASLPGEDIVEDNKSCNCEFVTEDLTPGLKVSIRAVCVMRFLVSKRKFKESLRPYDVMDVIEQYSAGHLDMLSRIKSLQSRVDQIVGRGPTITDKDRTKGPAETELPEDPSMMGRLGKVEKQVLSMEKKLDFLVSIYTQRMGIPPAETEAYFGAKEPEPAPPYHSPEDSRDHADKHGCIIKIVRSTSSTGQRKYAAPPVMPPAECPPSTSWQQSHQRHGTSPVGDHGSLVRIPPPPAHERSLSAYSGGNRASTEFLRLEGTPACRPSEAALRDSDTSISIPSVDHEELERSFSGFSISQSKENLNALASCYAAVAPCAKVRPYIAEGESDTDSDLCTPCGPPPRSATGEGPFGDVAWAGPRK
# KCNQ2 block baseline – second read-out of KCNQ2 block, no call of its own (marks repeat the call); B-score; measured here: initial fluorescence intensity artifact check;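 brightness before thallium and not channel activity; 0 = typical well and far values either way flag optical interference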
# * hit, by the source's call; i = inactive. Not all compounds are listed. The share of hits here may be higher or lower than overall.
SMILES,KCNQ2 block,KCNQ2 block baseline
COC(=O)c1c(NC(=O)c2ccco2)sc(C(=O)N2CCCC2)c1C,i,-1.4
CC(C)CC(=O)Nc1ccc(F)c(Cl)c1,i,-0.1
OCCCC1CCCCN1Cc1nc(Cc2ccccc2Cl)no1 (configuration not stated),i,0.28
O=C(O)CCS(=O)(=O)c1cccc2cccnc12,i,1.7
Cc1cc2ccccc2nc1SCC(=O)N1CCCC1,i,0.02
Cc1ccc(NCc2n[nH]c(=S)n2-c2cccc(Cl)c2)cc1,i,-3.2
CC1(C(=O)O)CCC(C(=O)Nc2cccc(F)c2)C1(C)C (configuration not stated),i,1.5
Cc1ccc(CNC(=O)Cc2ccc(NC3=NC4CS(=O)(=O)CC4S3)cc2)cc1 (configuration not stated),i,0.33
COc1ccc(Nc2ncnc3ccc(Br)cc23)c(OC)c1,i,-0.02
COc1cc(OC)cc(C(=O)n2cnnc2N)c1,i,-1.1
Cc1nnc2sc(SCc3ccc(Br)cc3)nn2c1=O,i,1.5
COc1ccc(C2(C(=O)c3ccccc3)C(=O)c3ccccc3C2=O)cc1,i,1.5
CCCCNC(=S)NC1CCCC1,i,-0.21
O=C(Nc1ccccc1)c1sc(Cl)nc1-c1ccccc1,i,-2
O=C(c1ccc(F)cc1)C(C(=O)N1CCCCC1)n1ccccc1=O (configuration not stated),i,-2.5
CC(NC(=O)CCSCCC(=O)NC(C)c1ccccc1)c1ccccc1 (configuration not stated),i,0.21
O=C(Nc1ccccc1F)c1ccc2snnc2c1,i,-0.01
Cc1cc(C)nc(NC2=NCCN2C(=O)NC2CCCCC2)n1,i,-0.82
Cc1cc(C)c(C)c(S(=O)(=O)NC2CCN(Cc3ccccc3)CC2)c1C,i,1.1
CCCC(=O)C1=C(SCC)CC(C)(C)C(C(=O)OC)C1=O (configuration not stated),i,0.09
Cc1ccc(S(=O)(=O)c2cc3c(=O)n4cccc(C)c4nc3n(C3CCCCC3)c2=N)cc1,i,0.04
COCCCn1c(C(=O)NC2CCCCC2C)cc2c(=O)n3cccc(C)c3nc21 (configuration not stated),i,-1.2
Cc1cccc(-n2c(SCC(=O)Nc3ccc4c(c3)OCO4)nnc2-c2ccoc2C)c1,i,0.41
C=CCNC(=O)c1cn(CC)c2cc(N3CCN(C(=O)c4ccco4)CC3)c(F)cc2c1=O,i,-0.13
Cc1cccc(N2CCN(C(=O)c3cccc(S(=O)(=O)N4CCc5ccccc5C4)c3)CC2C)c1 (configuration not stated),i,0.56
CCCOc1ccc(-c2nc(=S)[nH][nH]2)cc1,i,-1
O=C(CCC1CCCN(C(=O)CCN2CCCCC2=O)C1)NCc1ccccc1F (configuration not stated),i,-3.4
Cc1cc(NC(=O)CSc2cc(Cl)ccc2Cl)n(-c2ccccc2)n1,i,-1.8
Cc1ccc(C(=O)Oc2ccc(/C=N/NC(N)=O)cc2)cc1,i,-0.35
COc1ccnc(Oc2ccccc2)c1C(=O)N/C=N/OCc1ccc(F)cc1Cl,i,-1.6
CCN1CN(Cc2ccccc2)CNC1=S,i,-0.04
Cc1ccc(S(=O)(=O)c2c(N)n(Cc3ccco3)c3nc4ccccc4nc23)cc1C,i,4.4
CCNC(=S)N/N=C/c1cc(C)ccc1C,i,-0.21
CCN1C(=O)[C@H]2[C@@H](c3ccc(-c4cccc(Cl)c4)c(OC)c3)N[C@@](CC(C)C)(C(=O)OC)[C@H]2C1=O,i,-0.01
COc1ccccc1Cc1nnc(NC(=O)C2CCN(C(=O)c3ccco3)CC2)s1,i,1.2
O=C(N/C(=C\c1ccccc1)C(=O)N1CCCCCC1)c1ccccc1,i,-2
COc1cc(/C=N/N=C2/NC(=O)C(Cc3ccc(F)cc3)S2)ccc1O (configuration not stated),i,1.2
Cc1ccnc(NC(=O)CS(=O)(=O)Cc2ccccc2)c1,i,0.97
C=CCn1c(SCC(=O)c2cccs2)nnc1-c1cccc(OC)c1,i,1.2
Cc1nnsc1C(=O)N(Cc1ccccc1)C(C)C,i,0.13

# Compound profiles (already shown).
# Listed for O=C(N/C(=C\c1ccccc1)C(=O)N1CCCCCC1)c1ccccc1 : KCNQ2 block = i; KCNQ2 block baseline = -2
# Listed for Cc1nnc2sc(SCc3ccc(Br)cc3)nn2c1=O : KCNQ2 block = i; KCNQ2 block baseline = 1.5

# By substructure: the compounds so far containing a COOH group (2)
SMILES,KCNQ2 block,KCNQ2 block baseline
O=C(O)CCS(=O)(=O)c1cccc2cccnc12,i,1.7
CC1(C(=O)O)CCC(C(=O)Nc2cccc(F)c2)C1(C)C (configuration not stated),i,1.5

# Further compounds.
SMILES,KCNQ2 block,KCNQ2 block baseline
CC(/C=C\c1cccnc1)=C/C(=O)O,i,0.21
CN(C)CCCNc1nc(-c2ccc(Cl)cc2)nc2ccccc12,i,-1.4
CCCCNC(=O)N(CC)c1c(N)n(Cc2ccccc2)c(=O)[nH]c1=O,i,-0.71
CN(C)S(=O)(=O)c1ccc(N2CCCC2)c(C(=O)Nc2nc3ccc(F)cc3s2)c1,i,-0.15
O=C(O)c1ccc(/C=N/NC(=O)c2ccc(F)cc2)cc1,i,0.16
CCOC(=O)c1cc(-c2ccccc2)n(CC(=O)NC(C)(C)C)c1C,i,1.2
CCCCN(CC)C(=O)c1ccc(-c2ccccc2)cc1,-6.8*,-1.2*
O=C(Nc1ncc2c(n1)-c1ccccc1OC2)c1ccccc1Cl,i,-1.7
CCOc1ccc(S(=O)(=O)N2CCOCC2)cc1NC(=O)CSCc1c(C)noc1C,i,0.95
Cn1c(=O)c2cc3c(nc2n(C)c1=O)CC(c1ccccc1)CC3=O (configuration not stated),i,0.97
Cc1ccc(CC(=O)NCc2cccnc2)cc1,i,0.88
CC1(c2ccccc2)NC(=O)N(CC(=O)NCc2cccc(Cl)c2)C1=O (configuration not stated),i,-2.6
Cc1cc(C(=O)COC(=O)c2cccnc2Cl)c(C)n1-c1c(C)n(C)n(-c2ccccc2)c1=O,i,0.77
CCN(CC)CCCN(C(=O)c1ccco1)c1nc(-c2ccc(Cl)cc2)cs1,i,-1.6
Cc1ccc(-c2nn(C)c(=O)c3ccccc23)cc1CNC(=O)NC1CCCCC1,i,-1.8
Cc1ccc2sc(N(CCCN(C)C)C(=O)CN3C(=O)c4ccccc4C3=O)nc2c1C,i,2.1
O=C(NC1CCCc2c1cnn2-c1cc(F)cc(F)c1)c1ccncc1 (configuration not stated),i,0.1
CC(=O)C(CC(=O)N1CCCc2ccccc21)C(=O)Nc1ccc(F)cc1 (configuration not stated),i,0.19
Fc1ccc(N2CCN(c3nc(CN4CCOCC4)nc4scc(-c5ccccc5)c34)CC2)cc1,i,-1.5
COc1ccc(/C(C)=N/NC(=O)CNC(=O)c2cccs2)cc1,i,0.51
CCCC(=O)Nc1cc2c3c(c1)CCN3C(=O)CC2,i,0.33
CCc1nnc(NS(=O)(=O)c2ccc(NC(=O)Nc3ccc(OC)cc3)cc2)s1,i,2.2
CC(=O)c1c[nH]c(C(=O)NCc2cccc(C(F)(F)F)c2)c1,i,1.8
CC(=O)Nc1cc(Br)ccc1O,i,-0.22
CCOC(=O)c1ccc(N2NC(=O)/C(=C/c3ccc(OC(=O)c4ccco4)c(OC)c3)C2=O)cc1,i,-0.05
COC(=O)c1ccc(CN2CCC(CO)(CCOc3ccccc3)CC2)cc1,i,0.47
Cc1ccc(N(CC(=O)Nc2ccc3c(c2)OCCO3)S(C)(=O)=O)cc1,i,0.26
COc1ccc(-c2cc3c(=O)n(CC(=O)NCCN4CCCC4)nc(C)n3n2)cc1,i,-0.29
COc1nc(Oc2ccc(/C=N/O)cc2)nc(N(C)C)n1,i,-0.08
O=C(Nc1nc2ccccc2s1)Nc1ccc([N+](=O)[O-])cc1Cl,i,1.2
CCOc1cc(/C=C(\C#N)C(=O)NCC2CCCO2)ccc1OCC(N)=O (configuration not stated),i,-1
CC(=O)c1cccc(NC(=O)CSc2nc(N3CCOCC3)nc(N3CCOCC3)n2)c1,i,-0.72
O=C(N/N=C/C=C/c1ccccc1)c1ccc(Br)cc1,i,0.96
CCOC(=O)c1cccc(Nc2ncnc3ccccc23)c1,i,0.62
CC(=O)c1ccc(O)c(CSc2nncn2C)c1,i,1.6
CC1=CC(=C(C#N)C#N)C=C(C)N1CCN1CCNCC1,i,0.48
COc1ccc(NC(=O)NCc2cccn2C)c(OC)c1,i,0.35
CC(O)CNc1ccc([N+](=O)[O-])cc1S(=O)(=O)N1CCOCC1 (configuration not stated),i,0.33
c1csc(CNCCCN2CCOCC2)c1,i,-0.84
On1c2c(c3c4nonc4ccc31)CCCC2,i,7.8

# Ordered by value in KCNQ2 block baseline (lowest first): seven of the compounds above
SMILES,KCNQ2 block,KCNQ2 block baseline
CCCCNC(=O)N(CC)c1c(N)n(Cc2ccccc2)c(=O)[nH]c1=O,i,-0.71
CC(=O)Nc1cc(Br)ccc1O,i,-0.22
COc1ccc(Nc2ncnc3ccc(Br)cc23)c(OC)c1,i,-0.02
Cc1ccc(S(=O)(=O)c2cc3c(=O)n4cccc(C)c4nc3n(C3CCCCC3)c2=N)cc1,i,0.04
Cc1ccnc(NC(=O)CS(=O)(=O)Cc2ccccc2)c1,i,0.97
CC1(C(=O)O)CCC(C(=O)Nc2cccc(F)c2)C1(C)C (configuration not stated),i,1.5
O=C(O)CCS(=O)(=O)c1cccc2cccnc12,i,1.7

# (cont.)
SMILES,KCNQ2 block,KCNQ2 block baseline
O=C(Nn1c(-c2ccccc2)nc2ccccc2c1=O)C1CCC1,i,0.9
COc1ccc(CCNC(=O)C2CC(=O)N(c3ccc(F)cc3)C2)cc1OC (configuration not stated),i,-2.9
C=CCOc1ccccc1CN1CCSCC1,i,-0.86
O=C1c2ccccc2NC(c2ccccc2Cl)N1N=C1CCCCCC1 (configuration not stated),i,-0.42
N/C(=N/O)c1nc(N2CCCC2)nc(N(c2ccccc2)c2ccccc2)n1,i,0.72
COC(=O)c1sccc1NC(=O)c1ccccc1Br,i,-1.2
CSc1ccccc1OCc1cc(C(=O)N2CCN(Cc3nccn3C)CC2)no1,i,0.05
O=C(Nc1nnc(COc2ccc(Cl)cc2)s1)c1ccco1,i,0.34
CCCC(=O)Nc1cc(Cl)ccc1N1CCN(C(=O)CC)CC1,i,-0.19
Cc1sc(NC(=O)CN(CCc2ccccc2)C(=O)C2CC2)c(C(N)=O)c1C,i,1.4
CCn1c2ccccc2c2cc(NC(=O)COC(=O)c3cc(S(N)(=O)=O)c(Cl)cc3Cl)ccc21,i,-0.73
CCOc1ccc(NC(=O)CSc2nc3ccccc3nc2N2CCCC2)cc1,i,-1.3
O=C(Nc1ccc(F)cc1)C(c1ccccc1)N1CCN(S(=O)(=O)c2ccc3ccccc3c2)CC1 (configuration not stated),i,-1.7
O=C(CNCc1ccccc1Cl)Nc1ccc2c(c1)OCCO2,i,0.35
O=C(CCN1C(=O)C2C3CCC(C3)C2C1=O)OCC(=O)c1cccc([N+](=O)[O-])c1 (configuration not stated),i,-0.06
Cc1ccc(C)c(NS(=O)(=O)c2ccc(NC(=O)CSc3ccc(Cl)cc3)cc2)c1,i,0.48
COc1ccc(N=C2SC(C(=O)Nc3ccc4c(c3)OCO4)CC(=O)N2C)cc1 (configuration not stated),i,-1.5
COc1ccc(-c2noc(-c3cc(C)cc(C)c3)n2)cc1OC,i,2.4
CC1C(=O)N(Cc2ccccc2F)c2ccccc2N1C(=O)c1c(F)cccc1F (configuration not stated),i,0.54
O=C(N1CCN(Cc2ccc3c(c2)OCO3)CC1)C12CC3CC(CC(C3)C1)C2,i,1.2
CCOC(=O)N1CCC(N2CCN(Cc3ccccc3)C(CCO)C2)CC1 (configuration not stated),i,-0.68
O=[N+]([O-])c1cccc(-c2ccc(C(=S)N3CCN(c4ccccc4)CC3)o2)c1,i,-0.14
Cc1ccc(NC(=O)C2C3CCCC2C3c2ccccc2)cc1C (configuration not stated),i,0.5
O=C(CCN1CCN(c2ccccc2)CC1)Nc1ccccc1F,i,0.35
COc1ccc(CN(C)C(=S)Nc2ccc(Cl)cc2Cl)cc1,i,0.86
CCCn1c(SCc2nc3sc(C)c(C)c3c(=O)[nH]2)nc2ccccc2c1=O,i,0.74
O=C(O)c1ccccc1N/N=C/C1=C(N2CCOCC2)C(=C\c2ccccc2)/CC1,i,0.62
Brc1ccc(C2=Nn3c(nnc3-c3n[nH]c4c3CCC4)SC2)cc1,i,-1.1
Cc1oc2cc(O)cc(O)c2c(=O)c1-c1ccc2c(c1)OCCCO2,i,-2.3
Cc1ccc(Nc2nc(C)cc(C)c2C(N)=O)cc1,i,0.34
OC(COc1ccccc1CNCc1cccnc1)CN1CCc2ccccc2C1 (configuration not stated),i,2.6
CCOC(=O)c1[nH]c(C)c(C(=O)Nc2ccc(C)c(C)c2)c1C,i,0.03
Cc1cc(C)c2c(CC(=O)NCc3ccco3)coc2c1,i,-0.81
CCOC(=O)c1ccc(NC(=S)N2CCC(O)CC2)cc1,i,-1.3
CC(=O)N(Nc1ccccc1)c1ccccc1,i,0.13
O=C(N/N=C/c1c(F)c(F)c(F)c(F)c1F)c1cc(-c2ccccc2)nc2ccccc12,i,-0.24
FC(F)(F)c1ccc(C2[C@H]3CN(CC4CCCCC4)[C@H](c4ccccc4)C34CC2(c2cccnc2)C4)cc1 (some centres not stated),i,-0.85
CCCCN(C)C(=O)Cc1c(OC)ccc2cc(Br)ccc12,i,2.2
O=C(Oc1ccc(-c2nnco2)cc1)N1CCOCC1,i,-0.77
Cc1cccc(C)c1OCC(=O)NNC(=O)Nc1ccc(Cl)cc1,i,0.8
Cc1cccc(NC(=O)NNC(=O)COc2ccc(Cl)cc2)c1,i,-3.1
COc1ccc(CNC(=O)CCSCc2cccc(Cl)c2)c(OC)c1,i,2.9
O=C(/C=C/c1ccc([N+](=O)[O-])cc1)N1CCN(Cc2ccccc2)CC1,i,0.05
COc1ccc(NC(=O)CC2CCCC2)cc1OC,i,-3

# Screening data from PubChem.
